# GIV Gai3 FP: inhibitors of GIV GBA-motif binding to rat Galpha-i3; P08753; percent of control (FP), % (test concentration not listed); 210,000 tested, 0.42% active; Galpha-i3/FITC-GIV peptide fluorescence polarization, 90 min; stronger effect = lower value; scaled: aluminum fluoride 0%, vehicle 100%; AID 1224905;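 active = replicate mean at 85% of control or lower, very high polarization wells dropped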;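 also: wells of about 15 µL received 100 nL stock; the first replicate is given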
# Target sequence (P08753 whole entry, looked up): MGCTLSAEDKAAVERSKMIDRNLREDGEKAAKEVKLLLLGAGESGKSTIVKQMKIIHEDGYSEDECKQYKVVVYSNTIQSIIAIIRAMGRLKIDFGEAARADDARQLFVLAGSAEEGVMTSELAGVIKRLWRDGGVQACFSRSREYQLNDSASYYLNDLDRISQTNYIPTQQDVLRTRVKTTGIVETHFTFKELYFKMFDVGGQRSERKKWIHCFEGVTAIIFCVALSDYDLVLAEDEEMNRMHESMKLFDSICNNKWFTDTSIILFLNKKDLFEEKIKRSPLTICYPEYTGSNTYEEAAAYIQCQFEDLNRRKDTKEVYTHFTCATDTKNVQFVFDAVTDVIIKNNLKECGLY
# HCMV NEC inh: inhibitors of HCMV UL50-UL53 nuclear egress complex interaction; HTRF UL50-UL53 interaction, normalized percent inhibition; inhibition, % (no concentration beside the values); 190,000 tested, 0.15% active; AID 1918969;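 active = both replicates at 50% or more, plus weaker picks with an unusually low signal ratio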;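 also: stock transfer was 100 nL into about 20 µL; 0% = negative control wells and 100% = wells with untagged competitor protein; inactives centre near -12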
# Sa growth 42C: blocks Staphylococcus aureus growth; AID 720641; 170,000 tested, 0.53% active; S. aureus RN4220 growth, OD600, 20 h, 42 °C; stronger effect = lower value; relative growth, % (test concentration not listed);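 active = growth at 42 °C up to 50% and 20 or more points under that at 30 °C, or under 10% at both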;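 also: 300 nL library stock went into each well; scaled to the means of positive and negative controls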
# Sa growth 42C second temp: further read-out of Sa growth 42C, marked with its call; relative growth, %; measured here: growth at 30 °C;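 optical density after 20 h as mean of two plates; 100% = untreated growth and lower means inhibition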
# * marks the source's active call; other numbers are inactive results; . = not tested or not shown. Rows are unselected, and some 0.83% of all compounds hit somewhere here.
# Below each SMILES – GIV Gai3 FP	HCMV NEC inh	Sa growth 42C	Sa growth 42C second temp
CCc1ccc(/C=C2\NC(=S)N(C3CCCCC3)C2=O)cc1
  96	.	85	97
O=C(Nc1ccc(C(=O)N2CCOCC2)cc1)Nc1ccc(Cl)cc1Cl
  105	-3	101	93
NC(=O)C1(N2CCCCC2)CCN(C(=O)c2cc3ccc4cccnc4c3[nH]2)CC1
  103	-8	.	.
COc1ccc(C2CC(c3ccc(Br)cc3)=NN2C(=O)CCCC(=O)O)cc1 (stereo unspecified)
  97	-100	.	.
N#Cc1ccccc1CSc1nc2ccccc2c(=O)n1CC1CCC(C(=O)NCc2ccco2)CC1 (stereo unspecified)
  105	-19	92	89
CC(=O)NCc1ccc(C(=O)CSc2nnc3n2CCCCC3)s1
  .	-42	77	86
O=C(Nc1ccc(Br)cc1)c1c(-c2ccc(F)cc2)nc2n1CCS2(=O)=O
  102	-15	.	.
COc1cc(/C=N/N2CCOCC2)ccc1OC(=O)c1ccco1
  .	-21	101	92
Cc1cccc(S(=O)(=O)Nc2ccc(N3CCN(c4cccc(Cl)c4)CC3)c(C(=O)O)c2)c1
  102	-16	.	.
CC1(C)NC(=O)N(CCC#N)C1=O
  .	-20	101	92
O=C(CSc1nnc2sc3ccccc3n12)N1N=CCC1c1ccccc1 (stereo unspecified)
  102	.	95	83
Cc1csc(-n2[nH]c(C)c(CC(=O)Nc3ccccc3)c2=O)n1
  98	-11	.	.
Cc1[nH]c2ccc(-c3nnc(SC(C)C(=O)Nc4ccc5c(c4)OCCO5)o3)cc2c1C (stereo unspecified)
  102	-22	.	.
COc1ccc(NC(=O)c2cnc3ccccn3c2=O)cc1
  97	-32	91	93
Cn1cc(C(CNC(=O)Nc2cccc(F)c2)c2cccnc2)c2ccccc21 (stereo unspecified)
  107	1	.	.
CCN1CCN(CC(=O)NCc2ccc(Cl)cc2)CC1
  102	-19	99	97
COc1ccc(CNc2nc3ccccc3n2C)cc1OC
  .	-14	83	82
COc1ccc(-n2c(N)c(-c3nc4ccccc4s3)c3nc(C#N)c(C#N)nc32)cc1
  105	.	89	85
Cc1c(C#N)c(N=CN(C)C)c(C(=O)c2ccccc2)n1-c1ccccc1
  104	.	118	84
CSc1sc(C(=O)Nc2cccc(C(F)(F)F)c2)cc1S(=O)(=O)C(C)C
  102	3	107	86
Cc1ccc(NC(=O)CC2SC(=Nc3ccccc3)N(S(=O)(=O)c3ccccc3)C2=O)cc1 (stereo unspecified)
  113	10	.	.
O=C(CSc1nc2ccccc2nc1Cc1ccccc1)N1CCN(c2ccccc2)CC1
  96	.	106	87
CCOc1ccc(OCC)c(NS(=O)(=O)c2cc(Br)cc3c2N(C(C)=O)C(C)C3)c1 (stereo unspecified)
  101	5	88	92
Cc1nn(-c2ccccc2)c2c1C(=O)CC(c1ccco1)C2 (stereo unspecified)
  104	-6	118	86
CCOC(=O)c1c(NC(=O)c2cc3ccccc3oc2=O)sc(C(=O)CC)c1C
  100	-23	.	.
Cc1cc(C)nc(N2N=C(C(C)C)CC2=O)n1
  102	1	.	.
CC(=O)Nc1ccc(NC(=O)CC2Sc3ccccc3NC2=O)cc1 (stereo unspecified)
  104	22	94	101
CN(C(=O)C1=CC(c2ccc(F)cc2)=NS(=O)(=O)N1C)C1CCCCC1
  97	-53	85	80
O=C(COc1ccc2ccccc2c1)N1CCNCC1
  .	-17	111	90
O=C(NCc1ccc(Cl)cc1)C1CCN(c2nccn3nc(-c4ccccc4)cc23)CC1
  118	1	.	.
CCC(CC)NC(=O)CSc1nnc(Cc2ccccc2)o1
  .	-18	92	86
CC1CCN(C(=O)c2cccc(C(=O)N3CCC(C)CC3)n2)CC1
  91	-2	.	.
CC(=O)NC12CC3(C)CC(C)(CC(C)(C3)C1)C2
  .	-16	99	82
Cc1cc2cc(CNC(=O)/C=C\c3ccccc3)ccc2[nH]1
  102	.	100	84
Cc1ccc(-c2cc(C)nc3nc(N)nn23)cc1
  99	-4	.	.
O=C(COc1ccc(Cl)cc1)NCC(c1ccco1)S(=O)(=O)c1ccccc1 (stereo unspecified)
  102	.	107	96
CCn1c(=O)c2c(C(=O)NCCN3CCOCC3)cc(=O)n(CC)c2n(C)c1=O
  113	-3	.	.
Cc1cc(C)nc(N(C#N)CC(=O)N2c3ccccc3Sc3ccc(Cl)cc32)n1
  100	-20	90	88
CCOC(=O)c1cc2c(ccn2C)n1CC(=O)N1CCC(Cc2ccccc2)CC1
  101	-10	112	92
CCOc1ncccc1C(=O)Nc1ccnn1C(=O)c1cccnc1OCC
  .	-28	79	92
COc1ccc(CCNC(=O)Cn2cnc3onc(C)c3c2=O)cc1OC
  105	-4	.	.
CCc1cccc(NS(=O)(=O)c2ccc3c(c2)CC(C)N3C(C)=O)c1 (stereo unspecified)
  100	.	79	68
Cc1cc(N2CCC(C(=O)NCCCN3CCCC3)CC2)n2nc(C)c(-c3ccc(Cl)cc3)c2n1
  105	-2	109	93
Cc1sc2ncc(C(=O)NCC3CCCO3)c(=O)n2c1C (stereo unspecified)
  102	-25	.	.
CC(C)(C)OC(=O)NC1CCN(C(=O)Nc2ccccc2)CC1
  101	12	100	94
CC(C)N1CCC(=O)N(c2ccc3c(c2)CCO3)C1=O
  101	0	92	95
NC(=O)c1nnc2c3c(-c4ccccc4)c(-c4ccccc4)nnc3nn2c1N
  150	-64	94	77
COc1cc(Nc2nc(SCc3cccc(Cl)c3)nc3ccccc23)cc(OC)c1
  102	.	82	68
COc1ccc(C2=NN3C(C2)c2cc(OC)ccc2OC3c2ccc(Cl)cc2)cc1 (stereo unspecified)
  102	5	.	.
CCn1cc(C(=O)NCCCOC(C)C)c(=O)c2cc(S(=O)(=O)N3CCOCC3)ccc21
  104	19	94	94
C=CCn1c(SCc2nc(N)nc(N(C)C)n2)nnc1-c1cccnc1
  98	2	92	97
Cc1cccc(NC(=O)CN2C(=O)C3C4C=CC(C4)C3C2=O)c1 (stereo unspecified)
  105	.	92	88
CC1=C(C#N)C(C(F)(F)F)(C(F)(F)F)N=C(c2cccnc2)N1
  102	-11	97	94
Cc1ccc(/C=C/c2onc(C)c2S(=O)(=O)N2CCC(C(=O)N3CCOc4ccc(C)cc43)CC2)cc1
  103	.	115	106
COc1cc(-c2nc(-c3ccccc3)c(-c3ccc(Br)cc3)[nH]2)cc(OC)c1O
  108	-15	86	67
CC(=O)c1cccc(NC(=O)CSc2ncc3c(n2)-c2cc(Cl)ccc2N(Cc2ccccc2)S3(=O)=O)c1
  105	.	81	63
Cc1cc(NS(=O)(=O)c2ccc(N3Cc4ccccc4C3=NC(=O)c3cccc(S(=O)(=O)N(C)C)c3)cc2)no1
  .	10	56	90
O=C(Cn1c(=O)sc2ccccc21)Nc1ccccc1
  .	-14	101	90
C=CCNC(=O)CCc1cc(OC)c(OC)c(OC)c1
  .	-11	83	90
Cc1cc(C(=O)OCC(=O)OC2CC(C)CCC2C(C)C)c(C)o1 (stereo unspecified)
  .	0	116	97

# Reformatted as tab-separated lines: part of the list above
canonical_smiles	GIV Gai3 FP	HCMV NEC inh	Sa growth 42C	Sa growth 42C second temp
Cc1cc(N2CCC(C(=O)NCCCN3CCCC3)CC2)n2nc(C)c(-c3ccc(Cl)cc3)c2n1	105	-2	109	93
Cc1sc2ncc(C(=O)NCC3CCCO3)c(=O)n2c1C (stereo unspecified)	102	-25	.	.
CC(C)(C)OC(=O)NC1CCN(C(=O)Nc2ccccc2)CC1	101	12	100	94
CC(C)N1CCC(=O)N(c2ccc3c(c2)CCO3)C1=O	101	0	92	95
NC(=O)c1nnc2c3c(-c4ccccc4)c(-c4ccccc4)nnc3nn2c1N	150	-64	94	77
COc1cc(Nc2nc(SCc3cccc(Cl)c3)nc3ccccc23)cc(OC)c1	102	.	82	68
COc1ccc(C2=NN3C(C2)c2cc(OC)ccc2OC3c2ccc(Cl)cc2)cc1 (stereo unspecified)	102	5	.	.

# Following part
# Below each SMILES – GIV Gai3 FP	HCMV NEC inh	Sa growth 42C	Sa growth 42C second temp
COc1ccc(C2Oc3ccccc3C3CC(c4ccc(Br)cc4)=NN32)cc1 (stereo unspecified)
  95	-23	.	.
c1ccc2[nH]c(Cc3nc4ccccc4s3)nc2c1
  .	-5	143	88
CC(C)CC(NC(=O)c1ccc(C23CC4CC(CC(C4)C2)C3)cc1)C(=O)NCc1cccnc1 (stereo unspecified)
  103	.	95	81
CN1CCOCCOCCN(C)C1=O
  101	-97	109	86
Cc1ccsc1CNC(=O)c1sccc1Cl
  106	-16	106	92
O=C(CCc1nnc2c(=O)n(-c3cccc(F)c3)ccn12)NCCc1c[nH]c2ccccc12
  101	-28	.	.
CCOCCCNCc1ccc(-c2ccccc2F)o1
  99	-20	.	.
CCCC(=O)NCc1cn2ccsc2n1
  100	.	94	83
Cc1oc2cc(O)cc(O)c2c(=O)c1-c1ccccc1
  109	-1	111	84
O=C(CN1C(=O)COc2ccc(S(=O)(=O)N3CCCCCC3)cc21)N1CCN(c2cccc(Cl)c2)CC1
  104	-29	105	84
CCOC(=O)c1ccc(N2CCN(c3cccc(Cl)c3)CC2)c(NC(=O)Nc2ccc(OC)cc2OC)c1
  104	.	105	102
CC(=O)N/C(=C/c1ccccc1)C(=O)N1CCc2ccccc21
  .	-13	92	86
CN(CCCc1[nH]nc(N)c1C#N)c1nc(-c2cccs2)nc2ccccc12
  .	-40	67	38
CC(C)Cn1c(SC/C(O)=C(\C#N)C(=O)NCc2ccccc2)nc2ccccc21
  .	-35	73	74
CCOC(=O)c1c(C)c(S(=O)(=O)NCCC2=CCCCC2)c(C)n1C
  99	1	.	.
Cc1ccc(S(=O)(=O)c2nnn3c2nc(N2CCN(c4ccccc4F)CC2)c2cc(Cl)ccc23)cc1C
  101	-34	106	83
Cc1c(OCC(=O)C(C)(C)C)ccc2c3c(c(=O)oc12)CCC3
  .	10	115	98
Cc1noc2c1C(c1ccccc1)C1=C(CC(c3ccccc3O)CC1=O)N2 (stereo unspecified)
  104	2	.	.
Cc1cccc(Cn2nnc3c(=O)[nH]c(C4CCCN(C(=O)c5ccc(C(C)(C)C)cc5)C4)nc32)c1 (stereo unspecified)
  102	10	60	34
COc1ccc(-c2nn3c(N4CCN(C/C=C/c5ccccc5)CC4)cc(C)nc3c2C)cc1OC
  108	-35	.	.
COC(=O)CC1=NN(c2ccccc2)C(=O)/C1=C/N(C)C
  101	-17	112	92
N#CC1=C(N)Oc2nc(-c3ccccc3)[nH]c2C1c1ccc(OCC(N)=O)cc1 (stereo unspecified)
  .	-15	98	95
CC(C)c1ccc(OC(=O)C2COc3ccccc3O2)cc1 (stereo unspecified)
  105	-6	125	98
O=C(c1cc2ccc3cccnc3c2[nH]1)N1CCc2ccccc21
  99	-19	103	73
CC1=C(C(=O)OC(C)C(C)(C)C)C(c2ccc(O)cc2)NC(=O)N1 (stereo unspecified)
  99	-1	86	99
CC(C)Cn1cnc2sc3c(c2c1=N)CCCC3
  108	-4	99	89
Oc1ccccc1C=NCc1csc2ccccc12
  102	-5	112	110
O=C(NCCc1nc2cccnc2n1-c1ccccc1)Nc1ccccc1Br
  109	-14	.	.
CC1CCN(CC(C)OC(=O)c2cccs2)CC1 (stereo unspecified)
  97	-12	81	84
COc1ccc(OC)c(CNS(=O)(=O)c2c(C(=O)N3CCCCCC3)c(C)n(C)c2C)c1
  104	.	107	97
Cc1cc(NCc2ccco2)c2ccccc2n1
  .	-16	89	83
O=C1NC(=O)c2cc(NC(=O)C3COc4ccccc4O3)ccc21 (stereo unspecified)
  107	2	105	98
COc1ccc(NC(=O)/C(C#N)=C/C=C/c2ccco2)cc1
  114	-39	103	82
C/C(=N/O)c1ccc(OCCO)cc1
  104	-7	108	66
Cc1ccccc1C(=O)N1CCc2c(c(C(=O)NCc3ccccc3)nn2C)C1
  100	-21	.	.
COc1ccc(C(=O)OCC(=O)N(C)C)cc1
  .	-9	84	88
O=C(O)c1c2ccccc2[nH]c2c1oc1cc(=O)ccc12
  82*	25	84	104
Cc1ccc(-n2cc(C(=O)c3cc(C)ccc3O)cc(C#N)c2=O)cc1
  .	-75	98	74
CCCOc1ccc(C(=O)Nc2cccc(-c3nc4ccccc4[nH]3)c2)cc1
  110	1	94	79
Cc1ccc(Nc2ncnc3sc4c(c23)CCC(C)C4)cc1C (stereo unspecified)
  104	-15	111	86
COc1ccc(Cc2nnc3sc(Cc4ccc(OC)c(OC)c4)nn23)cc1
  113	-16	.	.
O=c1ccc(-c2ccc(S(=O)(=O)NCCCN3CCCCCC3)s2)n[nH]1
  110	-65	99	102
CC1CCN(CC2CCN(C(=O)Nc3ccc(C(=O)NCCN(C)C)cc3)CC2)CC1
  99	3	.	.
Cc1ccc(-c2nc(C)c(CCNS(=O)(=O)c3ccccc3F)s2)cc1
  96	.	115	93
CCCOc1ccc(C2NC(=O)NC(C)=C2C(=O)OCCc2ccccc2)cc1OC (stereo unspecified)
  101	-7	.	.
COc1ccc(-c2c(C#N)c(N)nc(SCC(=O)c3ccc(O)c(O)c3)c2C#N)cc1
  104	-32	.	.

# Screening data deposited in PubChem BioAssay by ICCB-Longwood Screening Facility, Harvard Medical School.
